StopGo reporter: High Throughput Screening for Foot and Mouth Disease Virus Antivirals; AID 1159524, 2015; Potency, µM (titrated, usually from 57.9 µM), for inactives: at the highest dose signal change, negative = less light; hit rate 1.2% among 410,000; human cells with a luciferase reporter of 2A StopGo recoding; control for the full effect not named in the record; active = well fitted falling curve with a large enough effect; inconclusive = small, poorly fitted or top-dose-only effect; inactive = no such curve, though single readings can be large or run the other way; tested in HEK293T cells; further: on the % scale 0 is the no-effect control and ±100 the full control effect; nearly all actives have a fitted effect of over 45% in size; luciferase light after 4 h
RE007 growth inh: qHTS Assay for Inhibitors of the HIV-1 protein Vpr. AID 651644, 2012. hit rate 0.21% among 360,000. S. pombe RE007 Vpr strain, BacTiter-Glo ATP luminescence, 24 h; control for the full effect not named in the record. Potency, µM (titrated, usually from 92.2 µM), for the others: at the top dose activity change, negative = less growth; active = well fitted falling curve with a large enough effect; inconclusive = small, poorly fitted or top-dose-only effect; inactive = no such curve, though single readings can be large or run the other way;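 further: on the % scale 0 is the no-effect control and ±100 the full control effect; nearly all actives have a fitted effect of over 50% in size; the assay follows cell death caused by Vpr and the record does not say whether a fall means rescue or toxicity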
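Fission yeast RE007 carrying one integrated HIV-1 vpr copy, seeded at OD 0.01 in PMG+AL medium with 23 nL pinned compound. Grown 24 h at 30 degrees; viability read by BacTiter-Glo luminescence after 5 min.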
Cruzain noTriton: qHTS Assay for Promiscuous and Specific Inhibitors of Cruzain (without detergent); purified cruzain, Z-FR-AMC fluorescence, no detergent; Potency, µM, inactives show max response, negative = inhibition, hits mostly inhibitors; hit rate 2.3% among 200,000;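 further: plate controls were enzyme without inhibitor for no effect and buffer without enzyme for full effect; nearly all actives have a fitted effect of over 40% in size; top concentration of the series not given in the record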
Target sequence (P25779 123-467 limits assumed): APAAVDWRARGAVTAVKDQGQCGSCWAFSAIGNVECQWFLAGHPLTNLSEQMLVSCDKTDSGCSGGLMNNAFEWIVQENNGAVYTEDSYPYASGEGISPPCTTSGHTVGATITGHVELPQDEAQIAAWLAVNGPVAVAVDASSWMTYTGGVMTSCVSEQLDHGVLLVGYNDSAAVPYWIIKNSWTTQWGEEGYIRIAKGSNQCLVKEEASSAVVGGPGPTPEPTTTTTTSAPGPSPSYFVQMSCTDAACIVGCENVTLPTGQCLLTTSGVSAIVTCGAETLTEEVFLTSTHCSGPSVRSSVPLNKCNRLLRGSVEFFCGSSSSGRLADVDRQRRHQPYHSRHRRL
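Purified cruzain at 1.5 nM, pre-incubated 15 min with compound at room temperature in 100 mM sodium acetate pH 5.5, 5 mM DTT, 0.00005% Triton X-100. Reaction started with 2 uM Z-FR-AMC; AMC fluorescence increase over 60 s gives rate.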
NS1 function inh: qHTS Assay for Inhibitors of Influenza NS1 Protein Function | S. cerevisiae slowed by influenza A NS1, growth recovery by OD600 | Potency, µM (titrated, usually from 46.1 µM), inactives show top-dose activity, positive = more growth | hit rate 0.4% among 270,000 | AID 2326, 2010; active means well fitted rising curve with a large enough effect; inconclusive means small, poorly fitted or top-dose-only effect; inactive means no such curve, though single readings can be large or run the other way; further: nearly all actives have a fitted effect of over 50% in size
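Compounds were scored for reversing the slow growth caused by influenza A NS1 in S. cerevisiae, measured by optical density at 600 nm. Assay medium contained 2% galactose at pH 6.0; NS1-free yeast of the same strain were the positive control.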
Cruzain Triton: qHTS Assay for Promiscuous and Specific Inhibitors of Cruzain (with detergent); AID 1478, 2009; Potency, µM, for the others: max response, negative = inhibition, actives largely listed as inhibitors; purified cruzain, Z-FR-AMC fluorescence, 0.01% Triton; Cruzipain (Trypanosoma cruzi), P25779; hit rate 0.43% among 200,000;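 further: plate controls were neutral wells for no effect and buffer without enzyme for full effect; nearly all actives have a fitted effect of over 40% in size; top concentration of the series not given in the record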
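Read-out: AMC fluorescence (360 nm excitation, 450 nm emission), four reads over 2 min, first-to-third difference used. Conditions: cruzain 1.5 nM, Z-FR-AMC 2 uM, pH 5.5 acetate, 5 mM DTT, 0.01% Triton X-100.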
LASV entry inh: qHTS for Inhibitors of binding or entry into cells for Lassa Virus; Lassa virus pseudotype entry inhibition, cell reporter; control for the full effect not named in the record; Potency, µM (highest dose often 37.9 µM), for the others: top-dose activity change, negative = inhibition, usual class: inhibitors; hit rate 1.2% among 300,000; AID 540256, 2011; active means well fitted inhibition curve with a large enough effect; inconclusive means small, poorly fitted or top-dose-only effect, or effect the other way; inactive means flat fitted curve, though single readings scatter; tested in HEK293 cells; further: on the % scale 0 is the no-effect control and ±100 the full control effect; nearly all actives have a fitted effect of over 50% in size; luciferase read-out
SARS PLpro yeast: qHTS of Yeast-based Assay for SARS-CoV PLP; S. cerevisiae expressing SARS-CoV PLpro, growth rescue; control for the full effect not named in the record; Potency, µM (highest dose often 32.9 µM), for the others: top-dose activity, positive = growth rescue; hit rate 0.19% among 330,000; active means well fitted rising curve with a large enough effect; inconclusive means small, poorly fitted or top-dose-only effect; inactive means no such curve, though single readings can be large or run the other way; further: 0% is about no effect; nearly all actives have a fitted effect of over 55% in size; growth read by luminescence after 48 h
Marburg entry inh: qHTS for inhibitors of binding or entry into cells for Marburg Virus; hit rate 1.8% among 300,000; Potency, µM (series often up to 37.8 µM), inactives show top-dose activity change, negative = inhibition, hits mostly inhibitors; Marburg virus pseudotyped entry inhibition, cell reporter; control for the full effect not named in the record; about a third of the inactives were read at about 46 µM; active = well fitted inhibition curve with a large enough effect; inconclusive = small, poorly fitted or top-dose-only effect, or effect the other way; inactive = flat fitted curve, though single readings scatter; tested in HEK293 cells; about a fifth of its hits are not listed in these tables; further: on the % scale 0 is the no-effect control and ±100 the full control effect; luciferase read-out
Starred values were filed as active, the others as inactive; ? = inconclusive; / = not tested or not shown; & = joins results of further samples; [ ] = another dose, or the depositor's remark. Unless noted, the call rests on the fitted dose curve; in most records, active means well fitted curve in the direction sought with a large enough effect; inconclusive means small, poorly fitted or top-dose-only effect, or another doubt; inactive means no such curve, though single readings can be large; an effect the other way counts as inactive or inconclusive. Potency means the concentration at half of the fitted maximal effect.

SMILES	StopGo reporter	RE007 growth inh	Cruzain noTriton	NS1 function inh	Cruzain Triton	LASV entry inh	SARS PLpro yeast	Marburg entry inh
CC(SCc1cn2cc(Cl)ccc2n1)C(=O)O (stereo unspecified)	12.2%	-1.3%	0.4%	3.0%	5.3%	10.1%	-1.0%	6.5%
Cc1c(NC(=O)c2noc(C(C)C)c2[N+](=O)[O-])c(=O)n(-c2ccccc2)n1C	-18.8%	0.9%	-2.8%	-3.7%	0.3%	/	-0.4%	/
COc1cc(OC)c(NC(=O)c2cc(CN3CCOCC3)on2)cc1Cl	-12.3%	/	8.4%	/	-2.6%	10.4%[46.1 µM]	/	/
CCOC(=O)C1CCN(C(c2cc3ccc(C)c(C)c3[nH]c2=O)c2nnnn2C2CCCCC2)CC1 (stereo unspecified)	-13.6%	2.4%	6.7%	6.0%	-6.1%	-28.9%	4.9%	?
COc1cccc(N2C(=O)NC(=O)/C(=C/c3ccc4c5c(cccc35)CC4)C2=O)c1	/	/	9.2%	18.0%	-3.8%	/	-13.7%	/
COc1ccccc1C(c1nnnn1C(C)(C)C)N1CCN(Cc2ccccc2)CC1 (stereo unspecified)	-18.5%	11.4%	1.9%	0.3%	0.0%	-25.3%	-7.5%	?
COc1ccc(-c2cn(-c3ccc(C)cc3C)c(=S)[nH]2)cc1OC	?	-7.8%	/	?	/	?	3.8%	?
CS(=O)(=O)Nc1ccc(S(=O)(=O)NC2CCCCC2)cc1	5.1%	6.4%	/	2.6%	/	-3.2%[46.1 µM]	-0.1%	?
Nc1c(-c2nc(-c3ccccc3Cl)no2)nnn1-c1ccccc1C(F)(F)F	-5.2%	/	38.6%	/	2.5%	3.6%[46.1 µM]	/	/
COc1ccc(NC(=O)CC2C(=O)N(c3cccc(C)c3)C(=O)N2C2CCCCC2)cc1 (stereo unspecified)	-12.6%&-1.2%	-0.7%	-7.4%&15.1%	-3.4%	-3.6%&2.4%	?	-5.6%	-0.9%[46.1 µM]
CCCSc1nc2cc(OC)c(OC)cc2c(=N)n1CCCN1CCOCC1	-19.7%	-11.9%	/	/	/	?	-0.8%	14.1µM*
C=CCOc1c(Br)cc(CNc2ccc(NC(=O)C(C)C)c(OC)c2)cc1OCC	?	3.1%	0.5%	4.7%	-8.1%	2.3%	0.7%	-20.7%
Oc1cccc(NC(=S)Nc2cccnc2)c1	2.5%	-11.0%	-3.2%	11.6%	-1.9%	-2.5%	4.0%	-5.5%
CCOc1ccc(OCC)c(S(=O)(=O)N2CCCCC2)c1	6.1%	10.7%	11.1%	-5.1%	-1.2%	13.0%	0.4%	-13.4%
Cc1ccc(S(=O)(=O)NCC(c2cccnc2)N2CCN(Cc3ccccc3)CC2)cc1 (stereo unspecified)	-3.7%	5.0%	/	0.7%	/	-3.9%[46.1 µM]	-3.3%	-12.0%[46.1 µM]
CCn1cc(/C=C/C(=O)c2ccc(O)cc2)c(C)n1	?	8.4%	/	5.4%	/	?	-1.4%	?
COc1cccc(C(=O)Nc2ccc3nc4n(c(=O)c3c2)CCCC4)c1	15.5%	-7.5%	/	-3.1%	/	/	0.0%	/
CCN(CC)S(=O)(=O)c1ccc(C(=O)NCc2n[nH]c(=S)n2-c2ccc(Cl)c(Cl)c2)cc1	-6.3%	12.5%	/	/	/	18.7%	2.5%	26.6%&26.6%[46.1 µM]
COc1ccc(C2=NOC3(CC(=O)N(c4ccc(C)cc4)C3=O)C2)cc1 (stereo unspecified)	46.7%[activator]	15.5%	-4.6%	2.5%	-5.7%	5.9%	2.4%	6.2%
COc1cc(C(=O)OCC(=O)Nc2cccc(S(=O)(=O)N3CCOCC3)c2)ccc1OCC(C)C	4.0%	-10.9%	/	/	/	12.9%	5.1%	-19.8%
CN(CC(=O)Nc1ccccc1Cl)C(=O)COC(=O)/C=C/c1ccccc1	-2.3%	-13.7%	/	/	/	24.2%	-0.5%	2.8%
C=CCn1c(=O)c(C(=O)Nc2cccnc2)c(O)c2ccccc21	0.0%	-26.6%	?	-15.1%	-2.9%	1.8%	-39.7%	19.7%
CCCSc1ncc(Cl)c(C(=O)Nc2ccc(CC)cc2)n1	-15.9%	/	-24.4%	/	-5.2%	6.9%[46.1 µM]	/	?
N#CC1=C(S)N(c2ccccc2)C(c2ccc(-c3cc(Cl)ccc3Cl)o2)NC1=O (stereo unspecified)	-11.5%	10.8%	29.8%	17.2%	-24.9%	-10.4%	-0.8%	23.2%
COc1ccc2c(c1)c(=O)oc1cc(OCC(=O)NC3CC3)ccc12	-24.3%	-6.8%	21.4%	7.5%	8.1%	-0.5%	1.0%	-0.9%
Cc1cc(O)c(C(C)C)cc1NC(=O)Nc1cccc2ccccc12	-22.0%	?	-8.1%	12.5%&8.2%	-0.1%	?	-1.2%	?
O=C(CN1CCN(S(=O)(=O)c2ccc(Cl)s2)CC1)N1CCOCC1	10.1%	1.6%	/	0.1%	/	-5.2%	-0.4%	2.3%
Cc1ccccc1Nc1nc(N)nc(COC(=O)[C@@H](NC(=O)c2ccco2)C(C)C)n1	-12.1%	-23.1%	/	/	/	21.5%[46.1 µM]	/	-3.9%[46.1 µM]
Cc1nnc(SCCC(=O)Nc2nc(-c3ccccc3)ns2)s1	-18.0%	-1.6%[3.69 µM]	?	-94.5%	-2.6%	-2.8%	/	-19.4%
Cc1cc(OCC(=O)NC(C)c2ccccc2)ccc1[N+](=O)[O-] (stereo unspecified)	-28.2%	37.3%	/	-5.4%	/	?	-1.2%	?
CCn1c(SCc2nc3sc(C(=O)O)c(C)c3c(=O)[nH]2)nc2ccccc21	0.0%	-5.1%	-6.4%	7.9%	-10.4%	-2.3%	21.4%	2.3%
COc1cccc2c1OC1(C)CC2NC(=O)N1c1cccc(C(=O)N2CCN(c3ccccc3)CC2)c1 (stereo unspecified)	-14.2%	5.2%	/	/	/	-13.6%	0.7%	-14.4%[46.1 µM]
CCc1cccc(-n2c(SCC(=O)c3c(N)n(C4CC4)c(=O)[nH]c3=O)nnc2N2CCOCC2)c1	6.1%	8.4%	/	/	/	1.2%	/	9.7%
CC12CCCCC1=CC(=O)CC2 (stereo unspecified)	1.5%	4.4%	/	/	/	2.8%	/	8.8%
Cc1ccc(Cl)cc1N1CCN(C(=O)Cn2cnc3onc(-c4ccc(F)cc4)c3c2=O)CC1	-17.1%	/	-29.7%	/	-7.3%	?	/	/
COc1cc(NC(=O)c2cc3ccccc3cc2OC)ccc1NC(=O)c1cccs1	?	16.5%	/	-0.3%	/	/	-3.2%	/
CCOc1cc(CNC(=O)CN2CCSc3ccccc32)cc(OCC)c1OCC	0.0%	/	?	/	-8.5%	5.7%[46.1 µM]	/	/
O=C(CCN1C(=O)C2C3CC(C(Br)C3Br)C2C1=O)OCC(=O)c1ccccc1 (stereo unspecified)	-17.2%	-16.6%	4.4%	-13.5%	-5.4%	?	15.2%	-10.5%
COc1ccc(Nc2nc(N)nc(CN3CCOCC3)n2)cc1	16.6%	18.6%	-7.0%	-5.5%	3.5%	-5.5%	11.0%	-0.8%[46.1 µM]
Cc1cc(C(=O)N2CCN(c3ccc(C(F)(F)F)cn3)CC2)c(C)o1	?	-7.7%	/	-7.4%	/	/	-1.6%	/
CCN1C(=O)C(CC(=O)Nc2ccc(F)cc2)N(Cc2ccc3c(c2)OCO3)C1=S (stereo unspecified)	10.6%	-7.5%	/	0.2%	/	0.0%	-3.7%	-18.5%
Cc1[nH]c2ccccc2c(=O)c1SC(F)(F)C(F)C(F)(F)F (stereo unspecified)	0.7%	-12.2%	-1.8%	-93.4%	-11.1%	-0.9%	-27.5%	20.7%
CCC(C)(C)NC(=O)COc1ccc(OCc2ccccc2)cc1	-2.7%	-9.2%	/	/	/	-7.7%	-3.6%	-1.9%[46.1 µM]
CNC(=S)N(Cc1cc2cc(OC)c(OC)cc2[nH]c1=O)C1CCCC1	-9.7%	21.1%	/	-2.5%	/	/	-0.7%	/
COCCN(C(C)=O)c1nnc(-c2ccccn2)s1	46.0%[activator]	-2.8%	-2.9%	-47.1%	3.1%	?	-2.7%	11.5%
O=C1CC(C(=O)Nc2nccs2)C(c2ccccc2)O1 (stereo unspecified)	-8.7%	12.1%	-8.5%	14.4%	-1.3%	-14.8%	4.6%	19.0%&19.0%
CCN1CCN(CC(=O)Nc2ccc(Cl)c(S(=O)(=O)N(C)C)c2)CC1	-10.5%	-13.2%	/	?	/	/	0.3%	/
FC(F)(F)c1ccc2c(c1)NP(=S)(N1CCOCC1)c1nccn1-2 (stereo unspecified)	/	-15.8%	5.7%	-3.3%	-0.2%	-2.0%	5.7%	-3.1%
Cc1ccc(NC2=CC(=O)CC(c3ccc(Cl)cc3)C2)cc1 (stereo unspecified)	-15.5%	-3.0%	1.8%	-4.6%	-7.1%	9.9%	6.7%	3.1%
CCOc1ccc(N(CC(=O)N/N=C/c2cc(Br)c(C)o2)S(C)(=O)=O)cc1	-14.1%	-1.1%	/	4.2%	/	0.4%	-1.7%	-3.1%[46.1 µM]
O=S(=O)(Nc1ccc(Br)cc1)c1cccc2cccnc12	20.3%	-0.8%	/	-0.7%	/	16.0%[46.1 µM]	2.8%	?
CC(C)CCN1C(Nc2ccccc2)=NC[C@@H]1CC(C)C	0.0%	-7.5%	/	-19.4%	/	/	1.2%	/
CC(C(=O)N1CCOCC1)N1C(=O)c2ccccc2C1=O (stereo unspecified)	4.3%	-4.4%	-13.2%	?	1.6%	11.5%	5.1%	8.6%
CN1CCN(c2ccc(S(=O)(=O)N3CCCCC3)cc2NC(=O)COc2ccc(F)cc2)CC1	-6.4%	-20.7%	/	/	/	-22.7%[46.1 µM]	4.4%	?

Screens from PubChem BioAssay.
